AF4-AF9 inh: inhibitors of AF4 peptide binding to AF9, primary screen, biochemical, AlphaScreen, biotin-AF4 peptide, FLAG-AF9, single point | Protein AF-9 (Homo sapiens), P42568 | inhibition, % at 10 µM | 0.47% of 350,000 active;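 active means every replicate reaching a set inhibition limit, whatever the replicate mean, cut at about 25% in these data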;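 further: 0% = plate neutral control median and 100% = total signal loss; the record names both 10 and 1 µM as test concentration; the first replicate is given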
Target sequence (P42568 whole entry, looked up): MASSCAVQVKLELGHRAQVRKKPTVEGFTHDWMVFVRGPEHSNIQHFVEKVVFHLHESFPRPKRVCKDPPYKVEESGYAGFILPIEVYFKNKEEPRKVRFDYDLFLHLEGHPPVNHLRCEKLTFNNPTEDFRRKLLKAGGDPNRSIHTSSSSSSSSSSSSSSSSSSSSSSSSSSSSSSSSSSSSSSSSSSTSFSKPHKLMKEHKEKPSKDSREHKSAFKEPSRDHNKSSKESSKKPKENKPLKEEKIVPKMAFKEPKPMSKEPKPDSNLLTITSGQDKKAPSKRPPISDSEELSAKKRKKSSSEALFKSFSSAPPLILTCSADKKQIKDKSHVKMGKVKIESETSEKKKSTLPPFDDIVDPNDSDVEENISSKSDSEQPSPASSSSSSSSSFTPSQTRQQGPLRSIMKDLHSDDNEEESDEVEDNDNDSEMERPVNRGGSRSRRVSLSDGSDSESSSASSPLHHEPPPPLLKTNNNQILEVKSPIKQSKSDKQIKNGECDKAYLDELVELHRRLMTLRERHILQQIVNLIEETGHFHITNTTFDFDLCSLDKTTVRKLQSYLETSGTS
rRNA inh HTS: reduced GFP signal of wild-type E. coli, primary screen, bacterial rRNA inhibitor project, GFP/RFP fluorescence, OD600, single point | GFP signal change (wild-type ribosome), % (test concentration not listed) | E. coli WT GFP vs humanized-ribosome RFP mutants, 24 h; stronger effect = lower value; DMSO median 0, no signal -100 | 1.6% of 350,000 active | AID 720706, 2013;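 active means significant combined selectivity score with lowered wild-type GFP, culture density cut under 30%, mutant RFP and density less affected; inactive means any of these conditions unmet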; further: one replicate is shown; some compounds called inactive have numbers as strong as hits
rRNA inh HTS OD600: second read-out of rRNA inh HTS, no call of its own (marks repeat the call); OD600 change, %; measured here: OD600 growth;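 optical density of the mix in the first replicate; 0 = DMSO median and -100 = no signal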
rRNA inh HTS RFP: also measured in rRNA inh HTS; calls as there; RFP signal change, %; measured here: RFP humanized mutant strains;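 first replicate; 0 = DMSO median and -100 = no signal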
An asterisk follows results filed as active.

mol	AF4-AF9 inh	rRNA inh HTS	rRNA inh HTS OD600	rRNA inh HTS RFP
C[C@H](CO)N1C[C@H](C)[C@@H](CN(C)C)Oc2ccc(NC(=O)c3ccncc3)cc2C1=O	-3.0	4	-3	-0.8
COc1ccc(NC(=O)Nc2ccc3c(c2)C(=O)N([C@@H](C)CO)C[C@H](C)[C@@H](CN(C)S(=O)(=O)c2cn(C)cn2)O3)cc1	-1.6	1	-2	-0.3
O=C(NCC[C@@H]1CC[C@@H](NS(=O)(=O)c2cccc(F)c2)[C@H](CO)O1)c1cnccn1	-1.1	1	13	-1.3
COc1ccc(-c2ccccc2[C@@H]2[C@@H](CO)N(C(=O)C3CC3)[C@H]2C#N)cc1	-2.4	-1	-2	-0.8
O=C(NC1CCCCC1)N1CC(=O)N2[C@H](CO)[C@H](c3ccc(-c4cccc(F)c4)cc3)[C@@H]2C1	-1.4	-10	-48	16
C[C@H]1CN([C@@H](C)CO)C(=O)c2cccc(NS(=O)(=O)c3cccs3)c2O[C@H]1CN(C)S(C)(=O)=O	-3.5	-1	1	-2.2
C[C@H]1CN([C@@H](C)CO)C(=O)c2cccc(NC(=O)CCCCCC(=O)Nc3ccccc3N)c2O[C@H]1CN(C)S(=O)(=O)c1ccc(F)cc1	-2.4	-3	-6	1.3
COc1ccc(S(=O)(=O)Nc2ccc3c(c2)C(=O)N([C@@H](C)CO)C[C@H](C)[C@H](CN(C)C(=O)NC(C)C)O3)cc1	-2.3	5	1	-0.7
C[C@@H]1CN([C@H](C)CO)C(=O)c2cc(NC(=O)Nc3ccccc3)ccc2O[C@H]1CN(C)S(=O)(=O)c1cn(C)cn1	-1.2	-4	-6	-2.6
CC(C)C#Cc1ccc([C@@H]2[C@@H](CO)N3CCCCN(C(=O)Nc4ccccc4)C[C@@H]23)cc1	3.3	-54	-61	-1.6
CC(C)NC(=O)N1C[C@@H]2[C@H](c3ccccc31)[C@@H](CO)N2C(=O)Nc1ccc(F)cc1	0.6	3	5	-0.7
CC(C)NC(=O)Nc1ccc2c(c1)C(=O)N([C@H](C)CO)C[C@H](C)[C@@H](CN(C)C(=O)Nc1cccc3ccccc13)OCCCC[C@H](C)O2	0.1	-3	-6	-1.5
CO[C@@H]1CN(C)C(=O)c2cc(NS(=O)(=O)c3ccc(Cl)cc3)ccc2OC[C@H](C)NC[C@@H]1C	-3.9	0	-4	-0.9
COc1ccccc1-c1cnc(C(O)c2ccc(SC)cc2)[nH]1 (configuration not stated)	3.6	-16	-45	1.2
CC=Cc1ccc2n(c1=O)C[C@H]1[C@H](CO)[C@@H](C(=O)NCCc3cn(C)cn3)N(C(=O)C3CCC3)[C@@H]21 (mixture of isomers)	1.5	2	8	-3.0
C[C@@H]1CN([C@@H](C)CO)C(=O)c2cc(NS(=O)(=O)c3ccc(F)cc3)ccc2O[C@@H](C)CCCCO[C@@H]1CN(C)C	4.6	-3	2	-1.6
C[C@H]1CN([C@@H](C)CO)C(=O)Cc2cc(NC(=O)Nc3ccc4c(c3)OCO4)ccc2O[C@H]1CN(C)C(=O)NC1CCCCC1	1.2	-3	-8	1.3
COc1cccc(NC(=O)C[C@H]2CC[C@@H]3[C@@H](COc4ccc(NC(=O)C5CCCC5)cc4C(=O)N3C)O2)c1	-0.6	-3	-6	3.5
C[C@@H]1CCCCO[C@@H](CN(C)S(=O)(=O)c2ccc(F)cc2)[C@H](C)CN([C@@H](C)CO)C(=O)c2cc(NS(=O)(=O)c3ccc(Cl)cc3)ccc2O1	-8.3	0	1	0.2
CC(=O)N[C@H]1CC[C@H](CCNC(=O)Nc2ccc(C(F)(F)F)cc2)O[C@H]1CO	12	-61	-76	-22

Some of these compounds in order of the rRNA inh HTS RFP value, highest first.
Molecule | rRNA inh HTS RFP
C[C@@H]1CCCCO[C@@H](CN(C)S(=O)(=O)c2ccc(F)cc2)[C@H](C)CN([C@@H](C)CO)C(=O)c2cc(NS(=O)(=O)c3ccc(Cl)cc3)ccc2O1 | 0.2
COc1ccc(S(=O)(=O)Nc2ccc3c(c2)C(=O)N([C@@H](C)CO)C[C@H](C)[C@H](CN(C)C(=O)NC(C)C)O3)cc1 | -0.7
CC(=O)N[C@H]1CC[C@H](CCNC(=O)Nc2ccc(C(F)(F)F)cc2)O[C@H]1CO | -22

Going on with the list.
mol	AF4-AF9 inh	rRNA inh HTS	rRNA inh HTS OD600	rRNA inh HTS RFP
C[C@H]1CN([C@@H](C)CO)C(=O)c2cc(C#CC(C)(C)O)cnc2O[C@H]1CN(C)C(=O)CN(C)C	-0.8	6	3	1.7
COCC(=O)N(C)C[C@@H]1Oc2cc(-c3ccncc3)ccc2S(=O)(=O)N([C@H](C)CO)C[C@H]1C	-1.8	4	8	-3.0
COc1ccc(-c2ccc([C@H]3[C@H](CO)N4CCCCN(C(=O)NC(C)C)C[C@@H]34)cc2)cc1	0.2	-2	3	-3.8
Oc1ccc(Br)c(CN2CCN(c3ncc(Cc4ccccc4)cn3)CC2)c1	0.9	-35	-69	-17
CCc1nc2c(OCC(=O)N3CCOCC3)cccn2c1N(C=O)Cc1ccccc1	-8.0	6	4	0.0
COCC(=O)Nc1ccc2c(c1)C(=O)N(C)C[C@@H](OC)[C@H](C)CN(CC1CC1)[C@H](C)CO2	2.5	2	1	-1.0
C[C@@H]1CN([C@H](C)CO)C(=O)c2cc(NS(C)(=O)=O)ccc2O[C@H]1CN(C)C(=O)NC1CCCCC1	-2.2	0	6	0.6
C[C@@H]1CN([C@@H](C)CO)C(=O)c2cc(C3=CCCCC3)cnc2O[C@H]1CN(C)Cc1cccnc1	-1.8	-2	12	-1.6
COc1cccc(NC(=O)Nc2nnc(COCCO)s2)c1	2.5	-10	-1	-0.3
O=C(C1CCCCC1)N1CC2(C1)[C@@H](c1ccccc1)[C@@H](CO)N2Cc1cncnc1	-1.3	-1	0	1.0
N#C[C@H]1N[C@H](CO)[C@@H]1c1ccc(C#Cc2cccnc2)cc1	-3.5	-10	-4	-4.0
C[C@@H]1CN([C@@H](C)CO)C(=O)c2cc(NC(=O)Cc3ccccc3)ccc2O[C@H]1CN(C)Cc1ccncc1	0.2	-1	14	1.6
O=C(CN1CCOCC1)NCC[C@@H]1CC[C@@H](NC(=O)Nc2ccc(Cl)cc2)[C@@H](CO)O1	-0.1	1	-4	0.8
C[C@H](CO)N1C[C@H](C)[C@H](CN(C)C)Oc2ncc(-c3cccc(C#N)c3)cc2C1=O	-3.1	2	-4	-6.0
CO[C@H]1CC[C@@H]2CCOc3c(C#N)cccc3C(=O)N(C)C[C@@H](OC)[C@@H](C)C(=O)N(C)C[C@H]1O2	5.4	-6	-8	-0.9
O=C(C[C@H]1CC[C@@H]2[C@H](COC[C@@H](O)CN2Cc2ccc(F)cc2)O1)N1CCc2ccccc2C1	0.8	-7	-29	1.8
COc1ccc(S(=O)(=O)Nc2ccc3c(c2)C(=O)N([C@@H](C)CO)C[C@@H](C)[C@H](CN(C)C(=O)Nc2ccccc2)OCCCC[C@@H](C)O3)cc1	1.4	-2	0	1.7
COc1ccc(N2CCN(C(=O)COC(=O)[C@@H](NC(=O)c3c(F)cccc3F)C(C)C)CC2)cc1	-1.8	-3	1	-0.4
C[C@@H]1CN([C@H](C)CO)C(=O)c2cccc(NC(=O)C3CCOCC3)c2O[C@H]1CN(C)S(=O)(=O)c1cn(C)cn1	-2.6	0	6	-2.7
Cc1noc(C)c1NC(=O)Nc1ccc2c(c1)CC(=O)N([C@H](C)CO)C[C@H](C)[C@H](CN(C)C(=O)Nc1cccc3ccccc13)O2	4.0	1	4	1.8

mol	AF4-AF9 inh	rRNA inh HTS	rRNA inh HTS OD600	rRNA inh HTS RFP
C[C@@H]1CN([C@H](C)CO)S(=O)(=O)c2ccc(-c3ccccc3)cc2O[C@@H]1CN(C)Cc1cncnc1	1.1	-2	-6	1.6
C[C@@H]1CN([C@H](C)CO)C(=O)c2cc(NC(=O)CCN3CCOCC3)ccc2O[C@@H]1CN(C)S(=O)(=O)c1ccc(Cl)cc1	1.2	1	-4	-0.2
COc1ccc(NC(=O)N(C)C[C@@H]2Oc3ncc(C#CCN(C)C)cc3C(=O)N([C@@H](C)CO)C[C@H]2C)cc1	-6.7	3	4	-3.4
CCNC(=O)C[C@H]1CC[C@H](NC(=O)NC2CCCCC2)[C@H](CO)O1	0.3	1	-1	-1.8
CC(C)NC(=O)N1CCCCN2[C@H](C1)[C@@H](c1ccc(C#CC3CC3)cc1)[C@@H]2CO	-3.2	0	-2	-0.4
Cc1noc(C)c1NC(=O)N(C)C[C@H]1Oc2ncc(C#CC3CCCC3)cc2C(=O)N([C@@H](C)CO)C[C@@H]1C	-1.5	4	3	-0.1
NC(=O)CN1C(=O)C2C3CCC(C3)C2C1=O (configuration not stated)	-2.2	12	31	1.1
C[C@@H]1CN([C@@H](C)CO)S(=O)(=O)c2ccc(-c3cncnc3)cc2O[C@@H]1CN(C)C	-6.1	1	3	1.4
C[C@@H]1CCCCO[C@H](CN(C)S(=O)(=O)c2ccc(Cl)cc2)[C@@H](C)CN([C@H](C)CO)C(=O)c2cc(NC(=O)C3CCCCC3)ccc2O1	-1.5	2	2	1.1
C[C@@H]1CCCCO[C@@H](CN(C)C(=O)c2ccncc2)[C@@H](C)CN([C@@H](C)CO)C(=O)c2cc(NS(=O)(=O)c3ccccc3)ccc2O1	-1.6	-2	-1	0.0
N#C[C@@H]1N[C@H](CO)[C@@H]1c1ccc(C#CC2CCCC2)cc1	-1.8	2	0	1.2
C[C@@H]1CN([C@H](C)CO)C(=O)c2cc(-c3ccccc3)cnc2O[C@@H]1CN(C)Cc1ccccc1	-7.4	6	18	-4.6
CCCC(=O)N1CCC1(C)C(=O)Nc1cc(-c2ccccc2)nn1C (configuration not stated)	-0.9	2	0	-0.2
C[C@H]1CN([C@@H](C)CO)C(=O)c2cc(NC(=O)Nc3ccc4c(c3)OCO4)ccc2O[C@H]1CN(C)S(=O)(=O)c1cccs1	4.7	0	2	-2.8
O=C(NCC[C@H]1CC[C@H](NS(=O)(=O)c2cccc(F)c2)[C@@H](CO)O1)C1CCOCC1	-2.2	1	-1	-1.9
OC(c1ccc2c(c1)OCO2)c1ncc(-c2ccccc2)[nH]1 (configuration not stated)	5.1	6	14	-1.3
CO[C@H]1CN(C)C(=O)c2cc(NS(=O)(=O)c3c(C)noc3C)ccc2OC[C@H](C)NC[C@@H]1C	-3.5	2	9	-3.1
COc1cccc(C#Cc2cnc3c(c2)C(=O)N([C@@H](C)CO)C[C@H](C)[C@H](CN(C)C(=O)C2CC2)O3)c1	-2.5	0	4	0.9
C[C@H]1CN([C@@H](C)CO)S(=O)(=O)c2ccc(-c3ccc(C#N)cc3)cc2O[C@H]1CN(C)Cc1cccc(F)c1	1.7	-2	2	-4.4
N#C[C@H]1[C@H](c2ccc(C#CC3CCCC3)cc2)[C@@H](CO)N1C(=O)Cc1ccccn1	3.0	6	-35	6.2
C[C@@H]1CN([C@@H](C)CO)C(=O)c2cc(NC(=O)c3ccncc3)ccc2O[C@@H](C)CCCCO[C@@H]1CN(C)C	3.2	-1	-4	0.9
CN(C(=O)c1cccc(NC(=O)Cc2ccc(NC(=O)C3CCCN(C(=O)CCc4ccccc4)C3)cc2)c1)C1CCC1 (configuration not stated)	-16	-9	-6	6.3
COc1ccc(S(=O)(=O)N(C)C[C@H]2OCCCC[C@H](C)Oc3ccc(NS(=O)(=O)c4cccs4)cc3C(=O)N([C@H](C)CO)C[C@@H]2C)cc1	2.8	-11	-9	2.8
CCS(=O)(=O)N1CC2(C1)[C@@H](c1ccccc1)[C@@H](CO)N2C(=O)C1CCCC1	-2.2	1	8	-1.1
Cc1ccc(S(=O)(=O)N2CCC(=O)N([C@H](COCc3cccc(Cl)c3)Cc3ccccc3)CC2)cc1	-11	4	6	4.1

In the list so far, these contain a thiophene ring, fused or not.
mol	AF4-AF9 inh	rRNA inh HTS	rRNA inh HTS OD600	rRNA inh HTS RFP
C[C@H]1CN([C@@H](C)CO)C(=O)c2cccc(NS(=O)(=O)c3cccs3)c2O[C@H]1CN(C)S(C)(=O)=O	-3.5	-1	1	-2.2
C[C@H]1CN([C@@H](C)CO)C(=O)c2cc(NC(=O)Nc3ccc4c(c3)OCO4)ccc2O[C@H]1CN(C)S(=O)(=O)c1cccs1	4.7	0	2	-2.8
COc1ccc(S(=O)(=O)N(C)C[C@H]2OCCCC[C@H](C)Oc3ccc(NS(=O)(=O)c4cccs4)cc3C(=O)N([C@H](C)CO)C[C@@H]2C)cc1	2.8	-11	-9	2.8

Only part of the results is shown. The share of hits here may be higher or lower than overall.
